Assay outcomes (PubChem BioAssay)
HTT prom inh: inhibits huntingtin promoter activity; HEK293 HTT promoter firefly luciferase reporter (activity 0% = vehicle and -100% = no light), 24 h; 48,000 compounds, 0.93% hits; Potency, µM (highest dose often 57.5 µM), without a hit: at the top dose activity change, negative = inhibition, hits mostly inhibitors; active = well fitted inhibition curve with a large enough effect; inconclusive = small, poorly fitted or top-dose-only effect; inactive = no such curve, though single readings can be large or run the other way; also: nearly all actives have a fitted effect of over 50% in size
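HEK293 luciferase promoter-reporter cells (2,500/well) plated 24 h, then compounds added at up to 57.5 uM final for 24 h at 37 °C. Firefly luminescence by Dual-Glo, normalized to vehicle (0%) and zero RLU (-100%).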
PMP22 txn prim: modulates PMP22 transcription in S16 Schwann cells. S16 Pmp22-F2sN Schwann cells (luciferase reporters placed in the Pmp22 gene), FLuc/NLuc coincidence luminescence, 24 h. Potency, µM (titrated, usually from 57.5 µM), inactives show at the highest dose activity change, negative = inhibition, actives largely listed as inhibitors. 43,000 compounds, 2% hits; active = clear falling dose curves in both reporters; inconclusive = both reporters move, but less clearly or upward; inactive = either reporter flat; the % is the NLuc reporter signal; also: % is scaled to controls: 0 for no effect and ±100 for the full control effect; some results filed as inactive show a strong effect at the top dose
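Reporter cells (S16 Pmp22-F2sN, 500–1,000 per well) exposed to compounds for 24 h, 37C, 5% CO2; lysis with FLuc read after 10 min, then Stop&Glo and NLuc read after 10 min.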
An asterisk follows results filed as active; ? = inconclusive; . = not tested or not shown; & = joins results of further samples; [ ] = dose if it differs, or a comment. Potency is read from the fitted curve at half-maximal effect.

Start of the listing, in advance (3 entries):
Structure	HTT prom inh	PMP22 txn prim
Cc1oc(-c2cccc(Cl)c2)nc1CN1CCC(C(=O)NCCCN2CCN(c3ccc(F)cc3)CC2)CC1	?	9.6µM*
Cc1ccc(NC(=O)Cn2nc(C(=O)Nc3ccc(C)cc3)ccc2=O)cc1	-13%	41%
CC(C)CCNC(=O)c1ccc(NC(=O)N2CCCCc3ccccc32)cc1	-3%	11%

The whole of this part, from the first entry:
Structure	HTT prom inh	PMP22 txn prim
Cc1oc(-c2cccc(Cl)c2)nc1CN1CCC(C(=O)NCCCN2CCN(c3ccc(F)cc3)CC2)CC1	?	9.6µM*
Cc1ccc(NC(=O)Cn2nc(C(=O)Nc3ccc(C)cc3)ccc2=O)cc1	-13%	41%
CC(C)CCNC(=O)c1ccc(NC(=O)N2CCCCc3ccccc32)cc1	-3%	11%
COc1cccc(CNC(=O)NCc2noc3ccc(C)cc23)c1	-19%	13%
CCOc1ccc(N(C(C)C(=O)NCCSc2ccc(Cl)cc2)S(C)(=O)=O)cc1 (stereo not drawn)	?	?
CCCSc1ncc(Cl)c(C(=O)Nc2c(C(=O)Nc3ccc(C)cc3)oc3ccccc23)n1	-10%	-10%
CCc1cccc(NC(=O)CCS(=O)(=O)c2ccc(C)cc2)c1	-5%	-1%
COc1ccc(-c2cc(OC(=O)c3ccccc3)c3c(C)oc(C)c3c(=O)c2)cc1OC	-22%	?
Cc1ccc(S(=O)(=O)n2nc(-c3ccco3)nc2NCc2ccc(N(C)C)cc2)cc1	0%	-19%
CCOC(=O)c1ccccc1NC(=O)c1cc2c(=O)oc3ccc(C)cc3c2s1	-8%	-16%
CC1CCCN(Cc2c(O)ccc3c(=O)c(Oc4ccc(C(C)(C)C)cc4)c(C(F)(F)F)oc23)C1 (stereo not drawn)	-15%	?
CCOc1ccccc1NC(=O)C(C)N(c1ccccc1)S(C)(=O)=O (stereo not drawn)	-6%	-19%
O=C(Nc1cccc(C(F)(F)F)c1)c1cc(-c2ccc3c(c2)OCCO3)on1	?	?
COc1cc(NC(=O)Cn2c(-c3ccccc3)cc(C(C)=O)c2C)cc(OC)c1	-22%	12%
Cc1ccccc1CNC(=O)C(=O)NCC(c1cccs1)S(=O)(=O)c1cccs1 (stereo not drawn)	?	-27%
Cc1ccc(Nc2c(-c3ccc(N(C)C)cc3)nc3ccccn23)cc1	72%[activator]	-14%

Arranged by molar mass (ascending): some entries from above
Structure	HTT prom inh	PMP22 txn prim
CCOc1ccccc1NC(=O)C(C)N(c1ccccc1)S(C)(=O)=O (stereo not drawn)	-6%	-19%
O=C(Nc1cccc(C(F)(F)F)c1)c1cc(-c2ccc3c(c2)OCCO3)on1	?	?
Cc1ccccc1CNC(=O)C(=O)NCC(c1cccs1)S(=O)(=O)c1cccs1 (stereo not drawn)	?	-27%

Single values from the results shown.
Value for COc1cc(NC(=O)Cn2c(-c3ccccc3)cc(C(C)=O)c2C)cc(OC)c1 under HTT prom inh: -22%
Value for CC1CCCN(Cc2c(O)ccc3c(=O)c(Oc4ccc(C(C)(C)C)cc4)c(C(F)(F)F)oc23)C1 (stereo not drawn) under HTT prom inh: -15%
Value for CCOC(=O)c1ccccc1NC(=O)c1cc2c(=O)oc3ccc(C)cc3c2s1 under HTT prom inh: -8%
Value for CCOc1ccccc1NC(=O)C(C)N(c1ccccc1)S(C)(=O)=O (stereo not drawn) under HTT prom inh: -6%
Value for Cc1ccc(S(=O)(=O)n2nc(-c3ccco3)nc2NCc2ccc(N(C)C)cc2)cc1 under PMP22 txn prim: -19%

(listing goes on)
Structure	HTT prom inh	PMP22 txn prim
COc1ccc(C)cc1NC(=O)Cn1c(=O)ccc2cc(S(=O)(=O)N3CCCC3)ccc21	?	?
CSc1ccc(CCNC(=O)c2cnc3c(C)cccn3c2=O)cc1	5%	-20%
C=CCc1ccccc1OCC(O)CN1CCN(c2ccccc2)CC1 (stereo not drawn)	-3%	-14%
Cc1ccccc1NC(=O)CCN1C(=O)c2ccccc2Sc2ncccc21	-2%	3%
CCC(C(=O)Nc1nnc2n1CCS2)c1ccccc1 (stereo not drawn)	-8%	11%
CCOc1ccc(NC(=O)Cn2nnc(C(=O)NCc3cccs3)c2N)cc1	-4%	-1%
CC(=O)N1CCCc2cc(S(=O)(=O)Nc3ccc(OC(F)(F)F)cc3)ccc21	?	16%
C=C1C[C@H]2[C@@H]3C=C(C)C4=CC(=O)CC[C@]4(C)[C@H]3CC[C@]2(C)[C@@]1(OC(C)=O)C(C)=O	-19%	.

Complete entries, looked up by structure. Order of values: HTT prom inh, PMP22 txn prim
Profile of CCCSc1ncc(Cl)c(C(=O)Nc2c(C(=O)Nc3ccc(C)cc3)oc3ccccc23)n1 : -10%, -10%
Profile of Cc1oc(-c2cccc(Cl)c2)nc1CN1CCC(C(=O)NCCCN2CCN(c3ccc(F)cc3)CC2)CC1 : ?, 9.6µM*

Continuation.
Structure	HTT prom inh	PMP22 txn prim
COC(=O)c1ccc(Cl)cc1NC(=O)N1CCC(CN2CCC(C)CC2)CC1	-15%	?
COc1ccc(NC(=O)Cn2nnc(C(=O)NCc3cccs3)c2N)cc1	-17%	-4%
Cn1c(=O)[nH]c(=O)c2c1nc(NCCc1ccccc1)n2Cc1ccc(F)cc1	-20%	?
CCOCCn1ccc2c(OCC(=O)NCc3ccc(F)cc3)cccc2c1=O	-2%	6%
COc1cc2ccccc2cc1C(=O)N1CCN(c2nc3c(F)cc(F)cc3s2)CC1	?	?
Cc1ccc2c(c1)N(C(=O)N1CCC(C(=O)NCCC3=CCCCC3)CC1)CC(C)O2 (stereo not drawn)	?	?
Cc1cccc(NC(=O)N2CCC(n3c(C)nc4cccnc43)CC2)c1	16%	-11%
COc1cc(C(=O)NC(c2ccc(Cl)cc2)c2cc(Cl)c3cccnc3c2O)cc(OC)c1OC (stereo not drawn)	5µM*	?
O=C(Nc1ccc(F)cc1)c1cccc(N2CCCS2(=O)=O)c1	10%	?
COc1cccc(NC(=O)Cn2c(=O)n(-c3ccc(C)cc3)c(=O)c3ccccc32)c1	-22%	?
Cc1ccc(CCNc2nc3ccccc3c3nc(-c4cccnc4)nn23)cc1	-2%	-15%
CCCCNC(=O)c1ccc2c(c1)NC(=O)C(C(C)C)N2 (stereo not drawn)	-15%	-32%
CCc1cccc(CC)c1NC(=O)Cc1csc(C)n1	-8%	1%
CC(=O)Nc1ccc(S(=O)(=O)NCCc2csc3nc(-c4cccc(C)c4)nn23)cc1	?	?
Cc1cccn2c(=O)cc(CSc3nnc(NC(=O)COc4ccccc4)s3)nc12	-8%	?
CCCCn1c(CN2CCN(c3ccc(OC)cc3)CC2)nc2c1c(=O)[nH]c(=O)n2C	-19%	?
Cc1ccc(C)c(Nc2nn3c(=O)c4ccc(C(=O)NCCC5=CCCCC5)cc4nc3s2)c1	-10%	?
COc1ccc(-n2c(SCc3ccccc3)nc3c([nH]c4ccccc43)c2=O)cc1	-2%	?
CC(C)n1c(C=C[C@H](O)C[C@H](O)CC(=O)O)c(-c2ccc(F)cc2)c2ccccc21	14%	.
COc1cccc(CSc2nc3n(n2)C(c2cccnc2)C(C(=O)Nc2ccccc2C)=C(C)N3)c1 (stereo not drawn)	4%	-3%
CCc1ccc(NCc2cccn2-c2nnc(N3CCCCCC3)s2)cc1	10µM*	?
O=C(Nc1ccc(C(F)(F)F)cc1)c1cc(S(=O)(=O)NC2CCCCCC2)ccc1F	28µM*	?
COc1ccc(-c2noc(COc3ccc(Br)cc3C)n2)cc1OC	-31%	19%
Cc1ccc(CNC(=O)c2ccc3c(c2)nc2n3CCCC2)cc1	41%[activator]	-3%
Cc1ccc(NC(=O)Cn2nc(N3CCN(c4ccccc4)CC3)ccc2=O)cc1F	0%	-9%
CCOC(=O)c1[nH]c(C)c(C(=O)NCCc2ccccc2)c1C	38%[activator]	-22%
O=C(CCn1c(=O)c2ccccc2n(Cc2cccc(Cl)c2)c1=O)NCCc1ccccc1	-1%	?
CN(C)CCOc1ccc(-c2nc(-c3ccc4c(c3)CCC4=NO)c(-c3ccncc3)[nH]2)cc1	7%	.
Cc1ccc(C(=O)Nc2ccc(Cl)c(-c3nc4ncccc4o3)c2)c(C)c1	45%[activator]	?
CCCOC(=O)c1c(NC(=O)C(C)Sc2nc(-c3ccccc3)cc(C(F)(F)F)n2)sc(C(=O)N(C)C)c1C (stereo not drawn)	?	?
COc1ccc(F)cc1S(=O)(=O)NCCc1csc2nc(-c3cccc(C)c3)nn12	-6%	-27%
COc1ccccc1NC(=O)CSc1nc2c(oc3ccccc32)c(=O)n1-c1ccccc1F	-11%	-17%

Next section
SMILES,HTT prom inh,PMP22 txn prim
CCCCN(C)CCNC(=O)CN1C(=O)CSc2ccc(S(=O)(=O)N3CCOCC3)cc21,5%,-7%
COc1ccc(CNc2nc(-c3ccc(Cl)cc3)cc(C(F)(F)F)n2)cc1,?,-11%
CCOc1ccccc1NC(=O)c1c(NCc2ccc(C)o2)sc2c1CCCCC2,-6%,13µM*
Cc1ccc(NC(=O)CSc2nc3ccc(NC(=O)c4ccco4)cc3s2)c(C)c1,-12%,?
CCN(CC)c1ccc(NC(=O)CCCN2C(=O)C(c3ccccc3)Oc3cccnc32)c(C)c1 (stereo not drawn),-9%,15µM*
COc1ccc(-c2nn3c(=O)cc(CN4CCN(C(=O)Nc5ccc(C)c(Cl)c5)CC4)nc3s2)cc1,-11%,-16%
CC(=O)c1ccc(NC(=O)c2ccc(-c3nc(COc4ccc(C)cc4)c(C)o3)cc2)cc1,-26%,-5%
COc1ccc2oc(=O)c(C(=O)Nc3ccc(C(=O)O)cc3)cc2c1,21%,-4%
COc1ccc(-c2nn3c(-c4ccccc4C)nnc3c3ccccc23)cc1,?,?
Cc1cc(C)c2c(C)c(C(=O)N3CCC(c4nc5ccccc5s4)CC3)oc2c1,?,?
COc1cccc(NC(=O)CSc2nnc(NC(=O)NC3CCCCC3)s2)c1,29%,?
Cc1ccc(NC(=O)C(Cc2ccccc2)n2cccc2)c(C)c1 (stereo not drawn),-25%,-8%
CCOc1ccc2c(c1)c(=O)c(C(=O)c1ccc(CC)cc1)cn2CC(=O)Nc1ccccc1OC,-14%,?
Oc1ccc(NCc2ccccc2OCc2ccccc2)cc1,-2%,7.3µM*
Cc1ccc(NC(=O)CC(C)S(=O)(=O)c2ccc3c(c2)NC(=O)CO3)c(Cl)c1 (stereo not drawn),9%,-30%
O=C(Cc1ccccc1F)N1CCC(c2nc3c(nnn3Cc3ccc(F)cc3)c(=O)[nH]2)CC1,-23%,-21%
COc1ccccc1N1CCN(C(=O)c2oc3ccccc3c2NC(=O)C(C)Oc2ccccc2)CC1 (stereo not drawn),-15%,?
COc1nc(N)nc2c1ncn2[C@@H]1O[C@H](CO)[C@@H](O)[C@@H]1O,9%&0%,.
Cn1c(-n2cccc2)c(-c2c(-c3ccccc3)[nH]c3c2c(=O)[nH]c(=O)n3C)c(=O)[nH]c1=O,-8%,2%
Nc1ccccc1NC(=O)c1ccc(CNC(=O)OCc2cccnc2)cc1,66%&88%[activator],.
CCOC(=O)c1ccccc1NC(=O)c1ccc2c(Cl)c3c(nc2c1)CCC3,-4%,-7%
Cc1ccc(C(=O)Nc2ccc3nc(N4CCCCC4)cc(C)c3c2)cc1F,?,?
Cc1ccc(-c2cn3c(n2)sc2cc(C(=O)NCCCc4ccccc4)ccc23)cc1,12%,0%
COc1ccc(NS(=O)(=O)c2ccc3[nH]c4c(c3c2)CCCC4)cc1Cl,-19%,?
Cc1ccc2c(c1)N(C(=O)N1CCC(C(=O)NCCc3ccccc3)CC1)CC(C)O2 (stereo not drawn),?,11%
Cc1ccc(CN2CCc3nc(N4CCN(c5ncccn5)CC4)ncc3C2)cc1,?,?
Cc1cc(O)c(C(c2ccccc2)N2CCN(c3ccc(F)cc3)CC2)c(=O)n1Cc1ccco1 (stereo not drawn),-2%,-25%
Cc1cccc(-c2nc(SCC(=O)N(C)c3ccccc3)c3c(=O)n(C)c(=O)n(C)c3n2)c1,-2%,4%
COc1ccc(Cl)cc1NC(=O)Cn1cc2c(n1)CCC(C)C2 (stereo not drawn),-30%,-18%
COC(=O)c1c(NC(=O)c2ccc(S(=O)(=O)N3CCCC(C)C3)cc2)sc2c1CCN(C(C)C)C2 (stereo not drawn),?,?
COc1ccc(-c2nc3nc(C)cc(C)n3c2Nc2c(C)cccc2C)cc1,-18%,?
Cc1ccc(CN(Cc2ccco2)C(=O)c2cccc(C)c2)cc1,-27%,4%
COc1cccc(C(=O)Nc2ccc(-n3nncc3-c3ccccc3)cc2)c1,-14%,-1%
Cc1ccccc1OCc1ccc(-c2nc(C#N)c(N3CCN(c4cccc(Cl)c4)CC3)o2)o1,-8%,-6%
Cc1noc(/C=C/c2cccs2)c1S(=O)(=O)N1CCC(C(=O)Nc2ccc(F)c(Cl)c2)CC1,?,?
COc1ccc(NC(=O)c2ccc3nc(CCc4ccccc4)oc3c2)cc1,40%[activator],-30%
COc1ccc(-c2[nH]c3c(c2-c2c(-n4cccc4)n(C)c(=O)[nH]c2=O)c(=O)[nH]c(=O)n3C)cc1F,-12%,-3%
CCS(=O)(=O)N1CC(=O)N(c2ccc(C)c(C)c2)C(C)(C(=O)NC2CCCCCC2)C1 (stereo not drawn),4%,-11%
Cc1ccc(NC(=O)C(C)Sc2nc(=O)cc(N)n2-c2cccc(C)c2)cc1 (stereo not drawn),-25%,17%
